TRPV1 PAM = potentiators of human vanilloid receptor 1 (TRPV1); Q8NER1; TRPV1-expressing cells, Fluo-8 calcium influx, capsaicin EC20 potentiation; host cell line not named in the record; control for the full effect not named in the record; potentiation, % at 8.33 µM; actives 0.02% (n = 320,000); active means potentiation above 80%; inconclusive means 30% to 80%; inactive means below 30%; further: 0% is about no effect
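Fluo-8 calcium influx in TRPV1-expressing cells, kinetic read (ex 480/em 520 nm). Compound added and read 3 min for agonist activity, followed by capsaicin at EC20 final and 2 min further read for enhancement.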
D2 potentiator = positive allosteric modulators of human D2 dopamine receptor; actives 0.23% (n = 360,000); AID 624464; P14416; potentiation, % (test concentration not listed); DiscoveRx D2 beta-arrestin cells, luminescence, 90 min; 100% = 57 uM dopamine signal; active = potentiation of 50% or more; inconclusive = 30% to 50%; inactive = 30% or less;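 further: compound concentration not given in the record; tested on top of an EC20 dose of dopamine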
Target sequence (P14416 whole entry, looked up): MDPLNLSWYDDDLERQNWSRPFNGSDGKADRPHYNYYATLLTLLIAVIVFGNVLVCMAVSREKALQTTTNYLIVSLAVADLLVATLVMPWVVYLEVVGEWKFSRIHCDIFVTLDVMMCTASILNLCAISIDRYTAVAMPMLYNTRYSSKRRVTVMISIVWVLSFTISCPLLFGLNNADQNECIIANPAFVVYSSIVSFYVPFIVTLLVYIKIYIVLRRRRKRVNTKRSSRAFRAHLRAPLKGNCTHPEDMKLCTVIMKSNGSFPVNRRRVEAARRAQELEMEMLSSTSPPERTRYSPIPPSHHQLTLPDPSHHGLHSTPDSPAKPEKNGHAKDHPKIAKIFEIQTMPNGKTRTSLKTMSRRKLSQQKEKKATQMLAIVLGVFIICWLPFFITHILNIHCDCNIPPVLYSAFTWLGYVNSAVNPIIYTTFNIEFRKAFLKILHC
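D2 cells co-treated with compound plus 50 nM dopamine (EC20) for 90 min at 37 deg C to detect potentiation. Beta-arrestin recruitment was read as enzyme-fragment luminescence after 1 h at ambient temperature. Full response was set by 57 uM dopamine.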
gsp antagonist = gsp mutant antagonism; actives 0.4% (n = 340,000); gsp-mutant cells, cAMP HTRF, 30 min; control for the full effect not named in the record; Potency, µM (top dose mostly 76.9 µM), for inactives: at the highest dose activity change, negative = inhibition, hits mostly inhibitors; active = falling curve of any shape with a large fitted effect; inconclusive = falling curve, mostly with a smaller effect; inactive = flat or rising curve; cell line not stated here;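 further: intracellular cAMP measured with PDE inhibitor Ro 20-1724 present during compound exposure; potency means the concentration at half of the fitted maximal effect; on the % scale 0 is the no-effect control and ±100 the full control effect; nearly all actives have a fitted effect of over 65% in size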
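HTRF cAMP read-out (cAMP-d2 plus anti-cAMP antibody-K in lysis buffer, 30 min RT). Before lysis, cells are exposed to compounds with […] for 30 min at 37C in DPBS containing Ca/Mg, BSA and Tween 20.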
gsp ag = agonists of gsp mutant (McCune-Albright syndrome); actives 0.13% (n = 340,000); gsp mutant cells, cAMP HTRF, 30 min; control for the full effect not named in the record; Potency, µM (top dose mostly 76.9 µM), for the others: at the highest dose activation (cAMP increase), usual class: activators; active = well fitted activation curve with a large enough effect; inconclusive = small, poorly fitted or top-dose-only effect, or another doubt; inactive = no such curve, though single readings can be large or run the other way; cell line not stated here;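 further: phosphodiesterase inhibitor Ro 20-1724 added with compounds to block cAMP breakdown; potency means the concentration at half of the fitted maximal effect; nearly all actives have a fitted effect of over 60% in size; about a fifth of the inactives were tested at one dose only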
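Cells in DMEM/10% FBS with G418 were pretreated with compounds in DMSO plus […] (300 uM stock) for 30 min at 37C. cAMP was measured by HTRF (cAMP-d2 plus anti-cAMP antibody-K) after 30 min at room temperature.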
Sfp inh = Sfp phosphopantetheinyl transferase inhibition; Q9F4F7; Biochemical Sfp PPTase activity, qHTS; Potency, µM, inactives show max response, negative = inhibition, actives largely listed as inhibitors; actives 3.5% (n = 310,000); active means well fitted inhibition curve with a large enough effect; inconclusive means small, poorly fitted or top-dose-only effect, or another doubt; inactive means no such curve, though single readings can be large or run the other way;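 further: the enzyme is Sfp with the accession as filed and its product quenches rhodamine fluorescence; potency means the concentration at half of the fitted maximal effect; 0% = enzyme reaction without inhibitor and -100% = no enzyme wells; top concentration of the series not given in the record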
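Fluorescence-quenching assay: 15 nM Sfp-PPTase preincubated 15 min at room temperature with compound, then 5 uM rhodamine-CoA and 12.5 uM BHQ-2-labelled YbbR peptide added. Fluorescence (ex 525/em 598 nm) read at start and after 30 min; difference gives rate.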
Menin MLL FP FL = displaces fluorescein MLL peptide from human menin; Fluorescence polarization, fluorescein-MLL peptide displacement from menin; FP activity change, % at 61.4 µM; 290,000 tested, under 10 active; inconclusive = falling polarisation curve, or a change in total fluorescence; inactive = total fluorescence flat and polarisation flat or rising; no compound was filed as active; the % refers to the polarisation; negative = inhibition;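 further: % of control where 0% means no effect; inhibitors lower the polarisation; unlabelled MLL peptide was the positive control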
ClpP mod = qHTS Assay for Activators of ClpP; ATP-dependent Clp protease proteolytic subunit (Bacillus subtilis (strain 168)), P80244; purified B. subtilis ClpP, FRET peptide cleavage, 20 min; Potency, µM (top dose mostly 57.5 µM), for the others: at the top dose activity change, negative = active; actives 1.9% (n = 340,000); AID 651965, 2013; active = well fitted falling curve with a large enough effect; inconclusive = small, poorly fitted or top-dose-only effect; inactive = no such curve, though single readings can be large or run the other way; further: potency means the concentration at half of the fitted maximal effect; the source files actives as falling curves though it sought activators and does not explain the sign; nearly all actives have a fitted effect of over 65% in size; many hits overshoot -100%
Target sequence (P80244 whole entry, looked up): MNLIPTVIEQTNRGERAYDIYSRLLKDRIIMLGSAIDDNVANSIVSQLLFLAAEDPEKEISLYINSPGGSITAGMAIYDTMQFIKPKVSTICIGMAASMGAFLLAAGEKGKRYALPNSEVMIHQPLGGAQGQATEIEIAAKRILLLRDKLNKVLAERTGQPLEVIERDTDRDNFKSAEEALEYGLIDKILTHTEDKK
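FRET quenching reversal measured ClpP activation: 10 microg/mL B. subtilis ClpP at pH 8 with the FRET-FV decapeptide, read at 430 nm after 320 nm excitation. The 20-min minus 0-min signal was scaled between DMSO/no-enzyme wells and ADEP (5.8 microM final).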
Active calls of the source: *; u = inconclusive; x = no result given; & = joins results of further samples; [ ] = dose if it differs, or a comment.

The line under a structure holds: TRPV1 PAM | D2 potentiator | gsp antagonist | gsp ag | Sfp inh | Menin MLL FP FL | ClpP mod
CC1(C)C(c2ccccc2)=[N+]([O-])C2(CCCCC2=O)N1O (stereo not given)
  20 | 21 | -3% | -39%[inhibitor] | 24% | 2.3 | 3.4%
CCCCNC(=S)NCc1ccc2c(c1)cc(C)n2C
  -5 | -5 | 4% | 1% | 4% | 3.3 | -0.2%
O=C(CN(C1CCCCC1)S(=O)(=O)c1ccc(F)cc1)NCC1CCCO1 (stereo not given)
  x | 19 | -2% | 12%[15.4 µM] | x | x | x
CCOC(=O)C1CC(c2ccc(Cl)cc2)=NNC1=O (stereo not given)
  4 | -5 | 7% | -20% | 16% | -0.4 | x
CNC(=O)C1CC(=O)N(CCc2ccc(OC)c(OC)c2)C(=Nc2ccc(F)cc2)S1 (stereo not given)
  -12 | 4 | -4% | 0% | 5% | -6.0 | x
CCOc1ccc(CN2CCN(Cc3ccc4cc(F)ccc4n3)CC2CCO)cc1 (stereo not given)
  -3 | -14 | 1% | -2% | 5% | 1.3 | x
COc1ccccc1CNC(=O)C1CCN(C(=O)NC2CCCCC2)CC1
  -8 | -2 | 10% | -5% | 0% | -4.7 | 0.4%
CCCC1(C(=O)O)NC(c2ccccc2O)C2C(=O)N(Cc3ccccc3)C(=O)C21 (stereo not given)
  -16 | -10 | -2% | -24% | u | -3.0 | -3.1%
O=C(NCc1nnnn1-c1ccc(F)cc1)C1CC(=O)N(c2ccc(F)cc2)C1 (stereo not given)
  11 | 6 | 20% | -21% | x | x | -1.2%
COc1ccccc1Cn1c(C)nnc1-c1cnn(C)c1N
  -1 | -3 | 3% | -6%[15.4 µM] | 0% | -0.6 | -18%
COc1ccc(OCc2cc(C(=O)N3CCSCC3)no2)c(Cl)c1
  15 | -2 | 5% | -51%[inhibitor] | 12% | x | 1.5%
O=C(N/N=C/c1cccc(O)c1)c1ccc(NC(=O)c2cccc([N+](=O)[O-])c2)cc1
  13 | 0 | -5% | -21% | 12% | 0.2 | -2.8%
CC(C)[C@@H]1COC(c2cccc(C3=N[C@H](C(C)C)CO3)n2)=N1
  1 | -5 | 2% | x | -11% | -1.4 | 2.8%
CCOc1ccc(N(C(=O)c2snc(C(N)=O)c2N)C(CC)C(=O)NC2CCCC2)cc1 (stereo not given)
  5 | -6 | -20% | -48%[inhibitor] | 14% | 0.2 | -6.9%
CCCN1CCN(C(=O)C(C)n2nc(C)c3sc4ccccc4c3c2=O)CC1 (stereo not given)
  0 | -11 | 2% | u | 9% | 3.4 | x
O=C(c1ccc(S(=O)(=O)N2CCCCCC2)cc1)N1CCN(Cc2ccccc2)CC1
  -7 | 0 | -1% | -9% | x | x | 0.5%
CC(NCC(=O)Nc1cc(S(=O)(=O)N2CCCCCC2)ccc1Cl)c1ccccc1 (stereo not given)
  -7 | 1 | -8% | -28% | -1% | -0.7 | 0.0%
COc1cccc(C(=O)COc2ccccc2-c2ccccc2)c1
  11 | -9 | 0% | 7%[15.4 µM] | 0% | 8.0 | 2.6%
O=c1c2[nH]c3ccc(F)cc3c2ncn1Cc1ccncc1
  -13 | -5 | -7% | 3%[15.4 µM] | 11% | 1.2 | x
COc1ccc(/C=C2\SC(=O)N(CCCC(=O)Nc3ccc(C(=O)O)cc3)C2=O)cc1OC
  2 | -12 | -20% | -93%[inhibitor] | 8% | x | 1.1%
CC1(C)S[C@@H]2[C@H](NC(=O)[C@H](C(=O)O)c3ccsc3)C(=O)N2[C@H]1C(=O)O
  -2 | x | x | x | -5%&14% | -4.0 | x
Cc1ccc(Oc2cc(NC(=O)CCCn3nc([N+](=O)[O-])c(Cl)c3C)cc([N+](=O)[O-])c2)cc1
  -2 | -11 | 15% | -8%[15.4 µM] | 3% | -5.3 | 1.3%
CC1(C)Cc2c(c(N3CCOCC3)nc3sc(C(N)=O)c(N)c23)CO1
  17 | 0 | -15% | 6%[15.4 µM] | 14µM* | 0.2 | -0.8%
CCN(CC)CCNC(=O)c1ccc(NC(=O)c2ccc(-n3cncn3)c([N+](=O)[O-])c2)cc1
  x | -17 | x | 12% | x | x | -4.9%
COc1cccc(C(=O)c2cn(CC(=O)NCc3ccco3)c3nc(C)ccc3c2=O)c1
  -7 | 4 | 2% | u | 6% | 7.6 | 1.0%
Cc1cc(Br)c2[nH]cc(CCNC(=O)c3ccco3)c2c1
  14 | -8 | -15% | -25% | 10% | -0.4 | -0.1%
COc1ccc(C2(c3ccc(OC)cc3)NC(=O)N(CC(=O)Nc3ccc(C(=O)N(C)C)cc3)C2=O)cc1
  2 | -2 | 1% | -8%[15.4 µM] | 1% | x | -6.9%
O=C(OCCN1C(=O)c2cccc3c(N4CCOCC4)ccc(c23)C1=O)c1cccc(Cl)c1
  -17 | -29 | -7% | 16% | 5% | u | -1.8%
COc1ccc(F)cc1C(=O)C1CCCN(Cc2c(C)n(C)n(-c3ccccc3)c2=O)C1 (stereo not given)
  7 | -18 | -8% | -20% | -2% | 2.4 | x
CN1C/C(=C/c2cccs2)C(=O)/C(=C\c2cccs2)C1
  u | -5 | -9% | u | u | -0.7 | x
Cc1ccc(S(=O)(=O)C2(C(=O)N3CCCC(C)C3)CC2)cc1 (stereo not given)
  -3 | -9 | 16% | -3% | 19% | 1.1 | 2.2%
COC(=O)c1ccc(NC(=O)CCn2cccc2)cc1
  27 | u | 4% | -23% | 11% | -0.1 | 0.9%
COc1cccc(-c2cc(C(=O)N3CCN(c4ccc(F)cc4)CC3)no2)c1
  -5 | -1 | 7% | -7% | 2% | -0.9 | 0.8%
O=S(=O)(c1ccc(C(F)(F)F)cc1)N1CCN(CCOc2ccccc2)CC1
  5 | -36 | 8% | 5%[15.4 µM] | x | x | x
Cc1c(C(=O)Nc2ccc(F)cc2)sc2ncn(CC(=O)N3CCCCC3)c(=O)c12
  -9 | -2 | -17% | -8% | -8% | 1.3 | -4.2%
O=C(CNC(=O)c1ccco1)OCc1ccc(C(=O)c2ccccc2)cc1
  21 | -1 | -3% | -3%[15.4 µM] | 11% | -5.6 | -0.6%
CC1(C)CC(CC(=O)Nc2ccc([N+](=O)[O-])cc2)C(=O)O1 (stereo not given)
  -9 | -4 | -3% | -31%[inhibitor] | 4% | 6.6 | 1.2%
O=C(CCCn1c(=O)oc2ccccc21)N1CCc2ccccc2C1
  5 | -9 | 9% | -1% | 3% | 1.0 | -4.1%
CCOC(=O)c1ccc(N2C(=O)C(O)=C(C(C)=O)C2c2ccc(O)c(OC)c2)cc1 (stereo not given)
  3 | 10 | -1% | 0% | -9% | 7.0 | -0.1%
Cc1cccc(C)c1NC(=O)CN(c1ccccn1)S(=O)(=O)c1ccc(F)cc1
  -5 | -8 | 3% | -22% | 14% | 2.6 | x
Cc1cc(C)nc(/N=C2\NC(=O)CC(C(=O)O)N2CCc2c[nH]c3ccccc23)n1 (stereo not given)
  21 | -5 | 0% | 4% | -3% | -0.7 | 1.0%
CC(=O)c1cccc(N(C(=O)c2ccco2)C(C(=O)NC2CCCC2)c2ccc(N3CCOCC3)cc2)c1 (stereo not given)
  8 | 2 | 6% | 12% | -1% | -0.9 | x
CN(C)N1C(N)=C(C#N)C(c2ccc3c(c2)OCO3)C2=C1CCCC2=O (stereo not given)
  -16 | 1 | -6% | 6% | 8% | 5.7 | x
CN(C)c1ccc(C(=O)NCc2ccc3c(c2)CCO3)cc1
  -1 | -6 | -2% | 11%[15.4 µM] | 10% | 2.3 | x
O=C(CN1C(=O)NC2(CCCC2)C1=O)N1CCN(S(=O)(=O)c2ccccc2F)CC1
  -3 | 1 | 16% | 4%[15.4 µM] | 2% | x | 1.0%
COc1ccc(Cc2nc3ccc(C(=O)N4CCC(N(C)C)C4)cc3o2)cc1 (stereo not given)
  19 | -13 | 2% | -30% | 16% | x | -1.5%
COC(=O)CSc1nnc(-c2cccnc2)n1C
  -5 | -2 | 12% | -5%[15.4 µM] | 10% | 1.3 | x
Cc1cc(C)c(C#N)c(SCCN2CCCCC2)n1
  0 | -16 | 4% | u | 19% | -0.3 | x
Cc1oc(-c2ccc3c(c2)OCCO3)cc1C(=O)NCC(=O)O
  -7 | 1 | 10% | 4%[15.4 µM] | -20% | 4.9 | x
COCCc1nnc(NC(=O)Cc2ccccc2)s1
  9 | -11 | 0% | -20% | 6% | 0.3 | -1.4%
CCSc1nnc(Cn2c(=O)sc3ccccc32)n1-c1ccc(OC)cc1
  -10 | 1 | -4% | -75%[inhibitor] | 4% | -1.4 | -1.4%
COc1ccc(C(=O)NCCOC(C)C)cc1OC1CCN(C(C)=O)CC1
  4 | 6 | -2% | -8% | 10% | 3.3 | -0.8%
CCCCCCCCCCCCN1[C@@H](CC(C)=O)c2cc(F)cc(F)c2S1(=O)=O
  x | -4 | 3% | 30% | x | x | -7.0%
COc1cccc(-c2nc(CS(=O)CC(=O)NCCc3ccccc3)c(C)o2)c1 (stereo not given)
  19 | -12 | 3% | -28% | -4% | x | -24%
COc1ccc(C)cc1Nc1nnc(C)c(=O)[nH]1
  -10 | -18 | 4% | 19% | 4% | 2.1 | x
Cc1cn(COC/C=C/c2ccccc2)c(=O)[nH]c1=O
  0 | 1 | 0% | -2% | 9% | 0.7 | 0.7%
CCN(CC)C(=O)[C@H]1C[C@H](CC(=O)NCC23CC4CC(CC(C4)C2)C3)C(=O)N2CCc3c([nH]c4cc(CCC(=O)N(C)C)ccc34)[C@]12C
  x | -5 | u | x | x | x | -1.5%
O=C(COc1ccccc1Cl)NNC(=O)Cn1[nH]c(=O)c2ccccc2c1=O
  -13 | -1 | 12% | 16% | x | x | -5.0%
COc1ccc(C(CC(=O)c2ccccc2)S(=O)(=O)c2ccc(C)cc2)cc1 (stereo not given)
  -12 | -10 | 5% | 13% | 7% | 0.6 | 1.2%
Cc1ccc(NC(=O)c2cc(Cl)ccc2[N+](=O)[O-])cc1C
  -9 | 16 | -8% | 3% | 9% | 4.2 | 1.2%
COc1ccc(CN2CCN(CCC(C)C)C(CCO)C2)cc1Cn1cccn1 (stereo not given)
  16 | -7 | 5% | -29% | 15% | 1.1 | -1.4%
CN1CCN(C(=O)c2cc3cc(F)ccc3[nH]2)CC1
  -7 | -28 | -2% | 33% | 8% | -0.1 | -7.0%
Cc1cc(C)c(NC(=O)C2CCCN2CCC(C)C)c(C)c1 (stereo not given)
  -9 | -6 | -8% | u | -9% | -0.1 | -0.4%
